Assay outcomes deposited in PubChem by ICCB-Longwood Screening Facility, Harvard Medical School.
Anaer choline gr = growth inhibitors of anaerobic choline-fed gram-negatives, minimal medium, absorbance. Gram-negative bacterium anaerobic choline minimal medium; hits give low values; many inactives read as strong as hits in the columns shown. calls only. actives 0.2% (n = 55,000). AID 1963822, 2024;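 active means growth z-score on choline under -2 at 7 or 20 h with little or no fall on glycerol, limits in tiers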;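 further: stock transfer was 300 nL into about 50 µL; the organism is E. coli; final concentration not given here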
Anaer choline gr early = also measured in Anaer choline gr; calls as there; z-score; measured here: choline growth z-score, timepoint 1;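 score of optical density at 7 h as mean of two plates; lower means less growth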
Numbers without * were called inactive; i = inactive; + = active, no number; & = joins results of further samples. Only part of the results is shown; count on the stated rates, not on these rows.

Molecule,Anaer choline gr,Anaer choline gr early
O=C(Nc1ccc(F)cc1F)c1ccc(S(=O)(=O)c2ccc(Br)cc2)nc1,i,0.54
COC(=O)c1sccc1NC(=O)CN1CCCN(Cc2ccccc2)S1(=O)=O,i,0.31
CCOc1ccc2ccccc2c1C(=O)NC1C(=O)N2C(C(=O)O)C(C)(C)S[C@H]12 (stereo not given in full),i,0.27
O=C1CN(C(=O)CSc2ccc(Cl)cc2)c2ccccc2N1,i,-0.23
O=S(=O)(NC1CCCC1)c1ccc(-c2cnc(C3CCCC3)o2)s1,i,0.2
CCCN(CCC)C(=O)c1ccc(-c2cc(N3CCCC3)ncn2)cc1,i,0.58
Cc1ccc(C)c(NC(=O)c2ccc(S(=O)(=O)c3ccc(C)c(C)c3)nc2)c1,i,-0.21
CC(C)N1CCN(C(=O)c2sc3ncccc3c2-n2cccc2)CC1,i,-0.44
CC1CCc2c(sc3ncnc(N4CCN(c5ccccc5)CC4)c23)C1 (stereo not given),i,-1.01
CCCn1c(=O)c2sccc2n2c(SCC(=O)Nc3ccc(C(=O)OCC)cc3)nnc12,i,-0.59
COCCCNC(=O)c1cc(-c2ccc(OC)cc2)nc2n[nH]c(-c3ccccc3)c12,i,-0.42
O=C(NCc1csc(-c2ccccc2)n1)[C@H]1CCCN1C(=O)Nc1cccc(Br)c1,i,1.19
O=C(NC1CCCC1)C1CCN(c2ncc(-c3ccccc3)cn2)CC1,i,-0.46
CCOc1ccc(-c2nonc2NC(=O)C(C)Oc2ccc(F)cc2)cc1C (stereo not given),i,-0.42
CN1C(=O)C2(CCN(C(=O)C3CCC3)C2)c2ccccc21 (stereo not given),i,-0.37
O=C(c1ccncc1)N1CCN(C(=O)c2cc3cc(Cl)ccc3[nH]2)CC1,i,0.37
CCCOc1c(C(=O)OC)sc2ccc(NS(=O)(=O)c3cc(C)ccc3NC(C)=O)cc12,i,0.97
CC1CCN(Cc2cc(=O)n3[nH]c(NCc4ccccc4)nc3n2)CC1,i,0.54
Cc1c(S(=O)(=O)NCC2CCCO2)c(C)n(C)c1-c1nnc(C2CCC2)o1 (stereo not given),i,0.43
COc1ccc(OCc2nnc3sc(C4COc5ccccc5O4)nn23)cc1 (stereo not given),i,0.11
CCc1ccc2c(c1)[C@H]1OCCC[C@H]1C(c1ccc(OC)c(OC)c1)N2 (stereo not given in full),i,0.05
CCc1onc(C)c1C1CCCN1S(=O)(=O)c1ccc(Cl)s1 (stereo not given),i,-0.4
Cc1cc(N2CCN(S(=O)(=O)c3ccc(F)c(F)c3)CC2)nc(N2CCOCC2)n1,i,0.37
COc1c(C)cnc(Cn2c(SCC(=O)Nc3ccc(F)cc3)nc3ccccc32)c1C,i,-1.39
CCOc1ccccc1N(CC(=O)N1CCN(c2ccccc2OC)CC1)S(=O)(=O)c1ccccc1,i,0.5
Cc1cc(C)cc(N2C(=O)C(Cc3ccccc3)N=C2N2CCN(C)CC2)c1 (stereo not given),i,-1.11
CC(C)(C)c1csc(-c2csc(S(=O)(=O)NCc3ccc(Br)cc3)c2)n1,i,-0.43
Cc1onc(-c2ccncc2)c1C(=O)NCCCN1CCN(c2ccc(F)cc2)CC1,i,0.55
CC(C)(C)c1cc(C=C(C#N)C(N)=S)cc(C(C)(C)C)c1O,i,0.56
O/N=C/c1ccc(-c2ccc(O)c(F)c2)c(Cl)c1O,i,-0.4
Cc1ccnc(N2CCC(C(=O)N3CCN(c4ccccn4)CC3)CC2)n1,i,-0.92
COc1ccc2[nH]cc(CCNC(=O)C3CCCN(c4nc5cccnc5s4)C3)c2c1 (stereo not given),i,0.29
Cn1c(=O)c(-c2noc(C(=O)NCCC3=CCCCC3)n2)nn(-c2ccc(F)cc2)c1=O,i,0.17
Cc1ccc(-c2noc(C3CC3)n2)cc1S(=O)(=O)Nc1ccc2c(c1)OCO2,i,0.27
O=C(O)c1cc(N2CCN(c3ncccn3)CC2)nc2ccc(NS(=O)(=O)c3ccc(F)cc3)cc12,i,0.54
O=C(Nc1ccccc1)c1nnc(C2CCN(C(=O)C3CCC3)CC2)s1,i,0.24

Some of these compounds in order of the Anaer choline gr early value, lowest first.
mol | Anaer choline gr early
CC(C)(C)c1csc(-c2csc(S(=O)(=O)NCc3ccc(Br)cc3)c2)n1 | -0.43
Cc1ccc(-c2noc(C3CC3)n2)cc1S(=O)(=O)Nc1ccc2c(c1)OCO2 | 0.27
CCOc1ccccc1N(CC(=O)N1CCN(c2ccccc2OC)CC1)S(=O)(=O)c1ccccc1 | 0.5

The main list resumes; the 4 compounds before the break are reprinted first.
Molecule,Anaer choline gr,Anaer choline gr early
Cn1c(=O)c(-c2noc(C(=O)NCCC3=CCCCC3)n2)nn(-c2ccc(F)cc2)c1=O,i,0.17
Cc1ccc(-c2noc(C3CC3)n2)cc1S(=O)(=O)Nc1ccc2c(c1)OCO2,i,0.27
O=C(O)c1cc(N2CCN(c3ncccn3)CC2)nc2ccc(NS(=O)(=O)c3ccc(F)cc3)cc12,i,0.54
O=C(Nc1ccccc1)c1nnc(C2CCN(C(=O)C3CCC3)CC2)s1,i,0.24
O=S(=O)(NC1CCCCC1)c1ccc(-c2nnc(C3CC3)o2)s1,i,-0.07
COC(=O)c1cnc(N(C)Cc2ccccc2)c2ccccc12,i,-0.93
Cc1nc(OCC(=O)N2CCc3ccccc32)c2c(-c3ccc(F)cc3)noc2n1,i,-0.16
Cn1nc(C(=O)Nc2ccc3c(c2)OCO3)cc1C(F)(F)F,i,0.03
CCc1nn(CC(=O)NCC2CCCO2)c(=O)c2cc3ccccc3n12 (stereo not given),i,-0.06
CCOc1ccc(NC(=O)Nc2ccccc2-c2cc3ccccc3[nH]2)cc1,i,-0.47
CC(=O)N1CCC(C(=O)NCc2ccccc2)(N(C(=O)c2ccc(C)cc2)c2ccccc2F)CC1,i,-0.68
COC(=O)c1c(NC(=O)c2nc(SCc3ccc(F)cc3)ncc2Cl)sc2c1CCC2,i,0.65
CCCCNC(=O)c1ccc(N2CCCS2(=O)=O)cc1,i,-0.05
Cc1ccc2nc(NC(=O)CSc3nc(C)nc4c3c(=O)n(C)c(=O)n4C)sc2c1,i,-0.06
Cc1noc(-c2ccc(-c3noc(-c4cccc(F)c4)n3)cc2)n1,i,-0.09
CN1C(=O)c2cc(C(=O)N3CCOCC3)nn2CC1(C)C(=O)NC1CCCC1 (stereo not given),i,1.59
O=C(Cc1csc(NC(=O)c2ccccc2)n1)Nc1ccc(Br)cc1,i,0.04
COc1ccc(OCc2nnc3sc(-c4ccc5c(c4)OCCO5)nn23)cc1,i,0.53
CCOc1ccccc1NC(=O)CN1C(=O)C(C)(C)c2ccccc21,i,0.31
Cc1ccc(C2=Nc3ccccc3N=C(SCC(=O)Nc3ccc4c(c3)OCO4)C2)cc1,i,0.74
CCC(C)NC(=O)c1cccc(-n2cnc3cccnc32)c1 (stereo not given),i,0
Nc1ccc(C(=O)O)c(O)c1,i,0.58&0.51&0.53
Cc1ccc(-c2nc(SCc3noc(CCC(=O)Nc4cc(C)on4)n3)n[nH]2)cc1,i,-0.31
CCCCN(C)c1ccc(NC(=O)c2ccccc2Cl)c(C(=O)O)c1,+,-2.63*
O=C(NCCCN1CCCCC1)C1CCCN(c2ccc(-c3ccccc3)nn2)C1 (stereo not given),i,-0.18
O=c1c2[nH]c3ccccc3c2ncn1Cc1nc(C2CC2)no1,i,0.64
COc1cccc(NC(=O)C2CCCN2S(=O)(=O)c2cc3c(cc2C)NC(=O)CO3)c1 (stereo not given),i,-0.39
CC1CCCN(CCCNC(=O)CC2CCN(S(=O)(=O)c3cccs3)CC2)C1 (stereo not given),i,0.25
Cc1cccnc1NS(=O)(=O)c1ccc2[nH]c3c(c2c1)CCCC3,i,-1.06
CCCCNC(=O)c1ccc(Cn2c(=O)[nH]c3cc(OC)c(OC)cc3c2=O)cc1,i,0
CCC(=O)Nc1nc2ccc(NC(=O)C(C)C)cc2s1,i,-0.56
COc1ccc(NC(=O)c2ccccc2C)cc1CN1CCn2c(nc3ccccc32)C1,i,-0.35
C[C@]12CCC(=O)C=C1CC[C@@H]1[C@@H]2[C@@H](O)C[C@@]2(C)[C@H]1CC[C@]2(O)C(=O)CO,i,0.16&0.49&0.94
O=C(Nc1ccc(F)cc1)N1CCN(Cc2cc(=O)n3nc(-c4ccccc4F)sc3n2)CC1,i,0.16
Cc1nc2cc(C(=O)N3CCN(c4ccccn4)CC3)ccc2n(Cc2ccccc2)c1=O,i,-0.15
O=C(Nc1nc2c(F)cccc2s1)c1ccc2c(c1)OCCO2,i,-1.06
c1ccc2c(c1)OCC(c1nc(-c3ccc(-n4ccnc4)nc3)no1)O2 (stereo not given),i,0.02
O=C(c1ccc(F)cc1)N1CCCN(Cc2noc(-c3ccccc3)n2)CC1,i,0.85
COc1ccc(N2CCCCn3c2nc2c3c(=O)n(C)c(=O)n2C)cc1,i,-1.7
CC1CCCN(c2ncc(S(=O)(=O)c3ccc(C(C)C)cc3)c(N)n2)C1 (stereo not given),i,0.46

(listing goes on)
Screens in order: Anaer choline gr, Anaer choline gr early
- Cc1nc2sc3ccccc3n2c(=O)c1S(=O)(=O)Nc1ccc(Cl)cc1
    i, 2.17
- O=C(Nc1ccc(F)cc1Cl)c1nc(Nc2ccccc2)c2ccccc2n1
    i, 0.14
- CCC1CCCCN1CCNS(=O)(=O)c1cc(-c2nc(C)c(C)s2)cs1 (stereo not given)
    i, -0.44
- Cc1ccccc1Cn1cnc2oc(C)c(C)c2c1=O
    i, -0.58
- CC(=O)N1c2ccc(S(=O)(=O)N3CCCC3)cc2CC1C(=O)N1CCN(c2ccccn2)CC1 (stereo not given)
    i, 0.44
- O=C1[C@H]2CCCC[C@H]2C(=O)N1CCCCN1CCN(c2nsc3ccccc23)CC1
    i, 0.6
- Cc1nc2cc(-c3noc(Cc4ccccc4Br)n3)ccc2n(C)c1=O
    i, -0.13
- CCc1cccc(C)c1Nc1c(-c2ccc(O)cc2)nc2cnc(Br)cn12
    i, -0.12
- O=C(NCc1cccc(Cl)c1)c1cccc(-n2nnc3cccnc32)c1
    i, 1.85
- Cc1cc(C)c(S(=O)(=O)N2CCCC2c2ccc(Cl)cc2)c(C)c1 (stereo not given)
    i, 3.39
- NS(=O)(=O)c1ccc(CCNC(=O)CCC(=O)N2CC3CCCN3c3ccccc32)cc1 (stereo not given)
    i, -0.99
- Cc1c(NS(=O)(=O)c2ccccc2)c(-n2cnnc2)nn1C
    i, 0.27
- O=C(Cn1ccn2nc(-c3ccc4c(c3)OCO4)cc2c1=O)NCc1ccccc1Cl
    i, -0.14
- Clc1cccc(-c2noc(Cc3nc(-c4cccs4)cs3)n2)c1
    i, 0.99
- COc1ccc(Oc2nc(C)nc3sc4c(c23)CCCC4)cc1
    i, -0.19
- COC(=O)c1ncn2c1C(=O)N(c1ccc3c(c1)OCCO3)C(C)(C(=O)NC1CCCC1)C2 (stereo not given)
    i, -1.11
- COc1ccc(F)cc1S(=O)(=O)Nc1cccc(N2CCCS2(=O)=O)c1
    i, 0.6
- Cc1ccc2[nH]c3c(=O)n(C(C)c4ccccc4)cnc3c2c1 (stereo not given)
    i, -0.02
- O=C(Cc1ccccc1)N1CCN(c2nc3ncccc3o2)CC1
    i, 0.2
- Cc1nn(-c2ccccc2)c2c1N(C(=O)CCC(=O)NCCc1c[nH]c3ccccc13)CCS2
    i, 1.04
- CCCN1CCN(c2ncnc3sc(C(=O)N4CCOCC4)c(C)c23)CC1
    i, -1.12
- CC(C)NC(=O)c1cc2ccccc2c(=O)s1
    i, 0.01
- O=C(NCc1ccc2c(c1)OCO2)c1cccc(Nc2ncc(-c3ccc(F)cc3)cn2)c1
    i, 0.38
- Cc1ccc(NC(=O)C2CCN(S(=O)(=O)c3ccc4[nH]c5c(c4c3)CCCCC5)CC2)nc1
    i, 0
- Cc1cccc(NC(=O)c2cc3c(=O)n4ccccc4nc3s2)c1
    i, -0.32
- CCc1cc(C2CCCN2C(=O)c2nn(C)cc2Cl)on1 (stereo not given)
    i, 0.04
- COc1ccc(Cl)cc1S(=O)(=O)N1CCC(c2nnc(-c3ccc(C)cc3)o2)CC1
    i, 1.33
- COc1cc(C)c(C)cc1S(=O)(=O)N1CCc2cc3cc(C)ccc3nc21
    i, 1.23
- COc1ccc(-c2nc(CN3CCC(C(=O)NCc4ccc(Cl)cc4)CC3)c(C)o2)cc1OC
    i, -2.34
- Cc1oc2ncn(CC(=O)NC3CC3)c(=O)c2c1C
    i, -0.38
- CCOc1ccc2c(c1)cc(C(=O)NC)n2C
    i, 0.29
- Cc1nc(-c2cc(S(=O)(=O)NCc3cc(F)cc(F)c3)c(C)s2)cs1
    i, -0.11
- O=C(c1ccoc1)N1CCc2[nH]ncc2C1
    i, -0.04
- Cc1cccc(-c2nn3c(=O)cc(N4CCN(C(=O)Nc5ccc6c(c5)OCO6)CC4)nc3s2)c1
    i, -1.29
- Clc1ccc2ncnc(NCc3ccc4c(c3)OCO4)c2c1
    i, 1.1
- Cc1ccc(N(C)S(=O)(=O)c2cn(C)cn2)cc1
    i, 0.57
- COc1ccc(N2C(=O)CC(NCCc3c[nH]c4ccc(Cl)cc34)C2=O)cc1 (stereo not given)
    i, 1.05

Compound profiles, from the list above. Order of values: Anaer choline gr, Anaer choline gr early
Clc1ccc2ncnc(NCc3ccc4c(c3)OCO4)c2c1 is entered as i, 1.1
CCOc1ccc2c(c1)cc(C(=O)NC)n2C is entered as i, 0.29
Cc1nc(-c2cc(S(=O)(=O)NCc3cc(F)cc(F)c3)c(C)s2)cs1 is entered as i, -0.11
O=C(c1ccoc1)N1CCc2[nH]ncc2C1 is entered as i, -0.04
Cc1cccc(-c2nn3c(=O)cc(N4CCN(C(=O)Nc5ccc6c(c5)OCO6)CC4)nc3s2)c1 is entered as i, -1.29
